High-throughput results (PubChem BioAssay)
SARS PLP yeast: inhibitors of SARS-CoV papain-like protease in yeast. S. cerevisiae expressing SARS-CoV PLpro, growth rescue; control for the full effect not named in the record. 0.19% of 330,000 active. AID 485353. Potency, µM (doses to about 32.9 µM), inactives show at the top dose activity, positive = growth rescue; active means well fitted rising curve with a large enough effect; inconclusive means small, poorly fitted or top-dose-only effect; inactive means no such curve, though single readings can be large or run the other way; also: 0% is about no effect; nearly all actives have a fitted effect of over 55% in size; growth read by luminescence after 48 h
Lassa entry inh: Lassa virus entry inhibition; Potency, µM (titrated, usually from 37.9 µM), for inactives: at the top dose activity change, negative = inhibition, hits mostly inhibitors; 1.2% of 300,000 active; Lassa virus pseudotype entry inhibition, cell reporter; control for the full effect not named in the record; AID 540256; active means well fitted inhibition curve with a large enough effect; inconclusive means small, poorly fitted or top-dose-only effect, or effect the other way; inactive means flat fitted curve, though single readings scatter; tested in HEK293 cells; also: % is scaled to controls: 0 for no effect and ±100 for the full control effect; nearly all actives have a fitted effect of over 50% in size; luciferase read-out
MARV entry inh: inhibitors of Marburg virus binding or cell entry | Potency, µM (doses to about 37.8 µM), without a hit: at the top dose activity change, negative = inhibition, usual class: inhibitors | Marburg virus pseudotyped entry inhibition, cell reporter; control for the full effect not named in the record; about a third of the inactives were read at about 46 µM | 1.8% of 300,000 active | AID 540276; active = well fitted inhibition curve with a large enough effect; inconclusive = small, poorly fitted or top-dose-only effect, or effect the other way; inactive = flat fitted curve, though single readings scatter; tested in HEK293 cells; about a fifth of its hits are not listed in these tables; also: % is scaled to controls: 0 for no effect and ±100 for the full control effect; luciferase read-out
NS1 inh: inhibitors of influenza NS1 protein function. S. cerevisiae slowed by influenza A NS1, growth recovery by OD600. Potency, µM (highest dose often 46.1 µM), inactives show top-dose activity, positive = more growth. 0.4% of 270,000 active. AID 2326; active means well fitted rising curve with a large enough effect; inconclusive means small, poorly fitted or top-dose-only effect; inactive means no such curve, though single readings can be large or run the other way; also: nearly all actives have a fitted effect of over 50% in size
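A cell-based growth assay was used: compounds that relieve NS1-induced slow growth of budding yeast raise OD600. Assay medium was yeast nitrogen base with ammonium sulphate and -URA supplement, pH 6.0, with 2% galactose.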
RE007 growth inh: less growth of the S. pombe RE007 Vpr strain. 0.21% of 360,000 active. Potency, µM (top dose mostly 92.2 µM), without a hit: at the highest dose activity change, negative = less growth. S. pombe RE007 Vpr strain, BacTiter-Glo ATP luminescence, 24 h; control for the full effect not named in the record; active = well fitted falling curve with a large enough effect; inconclusive = small, poorly fitted or top-dose-only effect; inactive = no such curve, though single readings can be large or run the other way;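 also: % is scaled to controls: 0 for no effect and ±100 for the full control effect; nearly all actives have a fitted effect of over 50% in size; the assay follows cell death caused by Vpr and the record does not say whether a fall means rescue or toxicity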
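Fission yeast RE007 carrying one integrated HIV-1 vpr copy, seeded at OD 0.01 in PMG+AL medium with 23 nL pinned compound. Grown 24 h at 30 degrees; viability read by BacTiter-Glo luminescence after 5 min.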
Cruzain noTriton: cruzain (T. cruzi) inhibition without detergent; P25779; Potency, µM, without a hit: max response, negative = inhibition, actives largely listed as inhibitors; purified cruzain, Z-FR-AMC fluorescence, no detergent; 2.3% of 200,000 active;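 also: plate controls were enzyme without inhibitor for no effect and buffer without enzyme for full effect; nearly all actives have a fitted effect of over 40% in size; top concentration of the series not given in the record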
Target sequence (P25779 123-467 limits assumed): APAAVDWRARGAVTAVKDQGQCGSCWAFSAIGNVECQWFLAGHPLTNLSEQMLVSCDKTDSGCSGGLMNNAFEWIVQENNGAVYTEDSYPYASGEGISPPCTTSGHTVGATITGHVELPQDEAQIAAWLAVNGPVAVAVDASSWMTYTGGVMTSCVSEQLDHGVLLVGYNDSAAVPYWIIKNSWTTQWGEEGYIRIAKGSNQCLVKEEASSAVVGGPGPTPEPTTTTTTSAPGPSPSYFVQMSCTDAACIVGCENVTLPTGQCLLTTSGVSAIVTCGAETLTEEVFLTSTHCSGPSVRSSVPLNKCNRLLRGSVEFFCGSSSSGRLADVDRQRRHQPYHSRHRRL
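Detergent-free condition (0.00005% Triton X-100) in acetate buffer pH 5.5 with DTT. 1.5 nM enzyme and compound were pre-mixed 15 min, then 2 uM Z-FR-AMC substrate added; reaction progress from fluorescence change between first and third reads (60 s).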
Cruzain Triton: blocks cruzain activity in presence of Triton detergent; purified cruzain, Z-FR-AMC fluorescence, 0.01% Triton; Potency, µM, without a hit: max response, negative = inhibition, actives largely listed as inhibitors; 0.43% of 200,000 active; P25779;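 also: plate controls were neutral wells for no effect and buffer without enzyme for full effect; nearly all actives have a fitted effect of over 40% in size; top concentration of the series not given in the record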
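Enzyme 1.5 nM, Z-FR-AMC 2 uM, NaOAc 100 mM pH 5.5, DTT 5 mM, Triton X-100 0.01%; 15 min RT compound preincubation; kinetic ex360/em450, 60 s delta.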
StopGo reporter: FMDV 2A StopGo reporter, luciferase signal; human cells with a luciferase reporter of 2A StopGo recoding; control for the full effect not named in the record; Potency, µM (series often up to 57.9 µM), inactives show top-dose signal change, negative = less light; 1.2% of 410,000 active; AID 1159524; active = well fitted falling curve with a large enough effect; inconclusive = small, poorly fitted or top-dose-only effect; inactive = no such curve, though single readings can be large or run the other way; tested in HEK293T cells; also: % is scaled to controls: 0 for no effect and ±100 for the full control effect; nearly all actives have a fitted effect of over 45% in size; luciferase light after 4 h
* marks the source's active call; other numbers are inactive results; ? = inconclusive; . = not tested or not shown; & = joins results of further samples; [ ] = another dose, or the depositor's remark. Unless noted, calls follow the shape of the dose curve; as a rule, active = well fitted curve in the direction sought with a large enough effect; inconclusive = small, poorly fitted or top-dose-only effect, or another doubt; inactive = no such curve, though single readings can be large; an effect the other way counts as inactive or inconclusive. Potency is read from the fitted curve at half-maximal effect.

SMILES	SARS PLP yeast	Lassa entry inh	MARV entry inh	NS1 inh	RE007 growth inh	Cruzain noTriton	Cruzain Triton	StopGo reporter
CCc1nnc(/N=C/c2c(O)n(-c3ccc(Cl)cn3)c(=O)c3ccccc23)s1	-19%	10%	-2%	23%	-11%	?	-7.5%	32%[activator]
COCCN(Cc1cc2cccc(C)c2n2nnnc12)C(=O)C(F)(F)F	-12%	1%	4%	2%	-5%	-1%	-0.5%	1%
COC(=O)CCC(=O)OC1(C)C(=O)C=C2C=C(C3CC3)N(CC3CC3)C=C2C1=O (stereo not given)	0%	.	.	-4%	-12%	.	.	-15%
O=C1NC(=S)SC1=Cc1ccc(N(CCCl)CCCl)cc1	.	?	?	.	7%	.	.	?
CCOC(=O)c1cc(S(=O)(=O)NC2CCN(C(=O)OCC)CC2)cn1C	4%	?	-7%	-1%	-2%	3%	3.0%	-16%
Cc1ccc(O)c(Sc2cc(C)ccc2O)c1	-22%	0%	7%	-44%	?	-2%	-8.1%	-11%
O=C(CCCCC(=O)Nc1ccc(F)cc1)Nc1ccc(F)cc1	4%	.	.	6%	-13%	.	.	-3%
COc1ccc(CNCCC(c2ccccc2)c2ccc(OC(C)C)cc2)cc1OC (stereo not given)	0%	6.3µM*	?	-6%	9%	.	.	-25%
CCN(CCN(C)C)C(=O)Cn1ncc2c1-c1cc(C)ccc1OC2	1%	.	.	?	0%	-17%	3.1%	-21%
COc1ccc(/C=C2\CN(Cc3ccccc3)C/C(=C\c3ccc(OC)c(O)c3)C2=O)cc1O	4%	?	?	15%	4%	.	.	-12%
CCC(=O)c1c(NC)cc(C)oc1=O	-2%	4%	16%[46.1 µM]	.	-18%	.	.	-6%
O=C1NC(=O)C2(CCCC2c2ccccc2)N1 (stereo not given)	.	20%	-6%	.	-26%	.	.	2%
CC(C)CCNC(=O)C1CCCCN1S(=O)(=O)c1ccc(F)cc1 (stereo not given)	8%	-14%	-17%	-2%	0%	-7%	-3.1%	.
CCOC(=O)N1CCN(Cc2nc(N)nc(Nc3ccc(C)cc3C)n2)CC1	14%	.	-6%[46.1 µM]	-3%	3%	.	.	1%
COc1ccccc1/C=N/Nc1cc(C)nc2ccc(C)cc12	-1%	21%[46.1 µM]	-3%[46.1 µM]	-22%	5%	.	.	4%
CCN(CC(=O)NCc1cccs1)C(=O)/C=C/c1ccc(OC)cc1OC	.	-3%	-22%	.	-2%	.	.	22%
CC(C)(C)NC(=O)/C(=C/c1ccco1)c1ccccc1	2%	11%	-5%	-25%	-18%	-2%	-10.0%	-21%
COc1ccc(Cl)cc1NC(=O)CCn1nc(C)cc1C	.	15%[46.1 µM]	.	.	.	4%	-1.7%	-22%
COc1ccc(CCNC(=O)c2ccc(Cl)cc2Cl)cc1OC	0%	.	.	-10%	16%	.	.	-3%
CC(C)(C)C(=O)O/N=C(\N)Cc1ccc(-c2csnn2)cc1	1%	?	8.9µM*	-3%	-2%	.	.	-7%

Quoted at random: seven records from the list.
SMILES	SARS PLP yeast	Lassa entry inh	MARV entry inh	NS1 inh	RE007 growth inh	Cruzain noTriton	Cruzain Triton	StopGo reporter
COc1ccc(Cl)cc1NC(=O)CCn1nc(C)cc1C	.	15%[46.1 µM]	.	.	.	4%	-1.7%	-22%
CC(C)(C)NC(=O)/C(=C/c1ccco1)c1ccccc1	2%	11%	-5%	-25%	-18%	-2%	-10.0%	-21%
CCOC(=O)N1CCN(Cc2nc(N)nc(Nc3ccc(C)cc3C)n2)CC1	14%	.	-6%[46.1 µM]	-3%	3%	.	.	1%
COc1ccccc1/C=N/Nc1cc(C)nc2ccc(C)cc12	-1%	21%[46.1 µM]	-3%[46.1 µM]	-22%	5%	.	.	4%
COc1ccc(CCNC(=O)c2ccc(Cl)cc2Cl)cc1OC	0%	.	.	-10%	16%	.	.	-3%
CCOC(=O)c1cc(S(=O)(=O)NC2CCN(C(=O)OCC)CC2)cn1C	4%	?	-7%	-1%	-2%	3%	3.0%	-16%
CCC(=O)c1c(NC)cc(C)oc1=O	-2%	4%	16%[46.1 µM]	.	-18%	.	.	-6%

Compound profiles, as listed above. Values in the order: SARS PLP yeast | Lassa entry inh | MARV entry inh | NS1 inh | RE007 growth inh | Cruzain noTriton | Cruzain Triton | StopGo reporter
CCC(=O)c1c(NC)cc(C)oc1=O as listed: -2% | 4% | 16%[46.1 µM] | . | -18% | . | . | -6%
CCc1nnc(/N=C/c2c(O)n(-c3ccc(Cl)cn3)c(=O)c3ccccc23)s1 as listed: -19% | 10% | -2% | 23% | -11% | ? | -7.5% | 32%[activator]

Later entries
SMILES	SARS PLP yeast	Lassa entry inh	MARV entry inh	NS1 inh	RE007 growth inh	Cruzain noTriton	Cruzain Triton	StopGo reporter
OCCN(CC(O)Cn1ccc2ccccc21)CC(O)Cn1ccc2ccccc21 (stereo not given)	1%	?	?	6%	-3%	-8%	0.0%	0%
COc1ccccc1-c1nc(-c2cccc(C)c2)no1	-18%	?	?	-12%	?	1%	-11%	-5%
Cc1ccc(/C(O)=C2\C(=O)C(=O)N(CC(C)O)C2c2cccc(F)c2)cc1 (stereo not given)	-4%	-2%	-2%	1%	2%	3%	0.3%	-9%
Cc1cccc(C)c1NC(=O)CSc1nc2[nH]c(=O)cc(O)c2s1	1%	-5%	?	.	-4%	.	.	0%
N#Cc1c(C(F)(F)F)cc(-c2ccco2)nc1SCc1ccncc1	2%	2%	?	-14%	-2%	6%	?	?
Cc1nc(S(=O)(=O)Nc2ccc3c(c2)OCCO3)cn1C	2%	0%	4%[46.1 µM]	-1%	3%	.	.	-17%
COc1cc(-c2nc3cnccn3c2Nc2ccc3c(c2)OCCO3)ccc1O	0%	0%	?	-33%	-18%	-11%	-2.1%	-10%
O=C(NCc1ccco1)/C(=C\C=C\c1ccccc1)NC(=O)c1ccco1	0%	.	.	-6%	-7%	.	.	14%
CN(C)CCNc1ccc(-c2n[nH]c(=O)c3ccccc23)cc1[N+](=O)[O-]	4%	13%[46.1 µM]	?	-3%	-12%	.	.	-26%
CNC(=O)C(=O)NCC1OCCCN1S(=O)(=O)c1cccs1 (stereo not given)	-6%	-4%	?	-2%	.	-10%	0.8%	-14%
COc1ccccc1N1CCN(C(=O)CCCC2=NS(=O)(=O)c3ccccc3N2)CC1	-10%	1%	10%	-18%	10%	7%	-0.4%	-1%
COc1ccc(-n2nc(C(=O)NCC(=O)NCCCN3CCOCC3)c3ccccc3c2=O)cc1OC	1%	0%	18%	-6%	-18%	.	.	55%
O=C(N/N=C\c1ccco1)Nc1cccc(Cl)c1	-6%	?	?	-19%	24%	-6%	-6.0%	17%
Cc1ccc(-n2c(SCC(=O)N3CC(=O)Nc4ccccc43)nc3ccccc3c2=O)cc1	-13%	-15%	?	14%	13%	-8%	?	-29%
Cn1cccc1/C=N/NC(=O)CNc1ccc2ccccc2c1	2%	6%	-13%[46.1 µM]	-2%	-19%	.	.	42%[activator]
O=C(CN1C(=O)c2ccccc2C1=O)Nc1sc2c(c1C(=O)NCC1CCCO1)CCC2 (stereo not given)	7%	14%	-11%	-2%	-22%	?	-1.4%	-18%
Clc1ccc(Nc2nc(-c3cccs3)cs2)nc1	-19%	?	?	-96%	-7%	?	-2.0%	-9%
CCn1cc(C(=O)NCCCOC)c(=O)c2cc(S(=O)(=O)N(C)C3CCCCC3)ccc21	1%	6%	-13%&-13%	-9%	-1%	-5%	-2.7%	-19%
COCCNC(=O)COC(=O)c1[nH]c(C)c(C(C)=O)c1C	2%	0%	11%	6%	-3%	-4%	2.3%	-22%
CN(C(=O)c1ccc2c(=O)n3c(nc2c1)CCCCC3)c1ccccc1Cl	-1%	2%	0%[46.1 µM]	-4%	-5%	.	.	24%
Cc1nc(SC(C)C)[nH]c(=O)c1Cc1ccccc1	-8%	0%	1%	-17%	-20%	5%	-5.3%	-15%
CCc1ccc(OCC(=O)N/N=C(\C)c2ccc(O)cc2O)cc1	17%	?	?	-4%	5%	.	.	-1%
CC(=O)NC(=S)Nc1cccc(S(=O)(=O)NC2=NCCC2)c1	-2%	-8%	3%	0%	-6%	0%	1.9%	26%
COc1ccc2nccc(/C=C/c3ccnc4ccc(OC)cc34)c2c1	0%	-37%	?	-3%	-9%	.	.	-6%
COc1ccc(-c2nc(CS(=O)CC(=O)NCCCN3CCCC3)c(C)o2)cc1OC (stereo not given)	-3%	-3%	2%	4%	2%	22%	9.1%	14%
CCCCn1c(N)c(N(CCOC)C(=O)C2CCN(C(=O)c3ccccc3C)CC2)c(=O)[nH]c1=O	0%	6%	-6%[46.1 µM]	.	-15%	.	.	-4%
Cc1cc(NS(=O)(=O)c2ccc(NC(=O)c3ccccc3C)cc2)no1	1%	.	4%[46.1 µM]	2%	-1%	.	.	0%
COC(=O)[C@@H]1CCCN1Cc1c(C(=O)N2CCCCC2)nc2c(C)cccn12	-1%	-6%[46.1 µM]	?	4%	-4%	.	.	10%
CC1(C)CC(=O)C2=C(C1)c1c(ccc3ccccc13)NC2c1ccc(Br)o1 (stereo not given)	2%	?	?	-2%	15%	-29%	-6.3%	8%
CC(NCC(c1ccco1)N1CCCCC1)C(=O)NC1CCCC1 (stereo not given)	-1%	?	-19%[46.1 µM]	.	6%	.	.	-8%
